Screens (PubChem)
INS promoter inh = TRM-6 insulin promoter activity inhibition | TRM-6 cells (human fetal islet line), insulin promoter-eGFP reporter, imaging; reporter expression induced with tamoxifen | inhibition, % at 2 µM | hit rate 0.9% among 130,000 | AID 1273;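 active = inhibition above the mean plus 3 SD, with well images judged a real hit on visual review, cut at about 60% in these data, passing the limit was not always enough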
GALR2 agonist = GALR2 (human) receptor agonism; O43603; GALR2-expressing cells, agonist activation read-out; activation, %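 (tested at 5 µM)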; hit rate 0.48% among 140,000;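 active = above mean plus 3 SD of all compounds, about 5% in these data, not always enough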;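 note: 0% = vehicle buffer wells and 100% = reference agonist at full effect; tested in CHO reporter cells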
Target sequence (O43603 whole entry, looked up): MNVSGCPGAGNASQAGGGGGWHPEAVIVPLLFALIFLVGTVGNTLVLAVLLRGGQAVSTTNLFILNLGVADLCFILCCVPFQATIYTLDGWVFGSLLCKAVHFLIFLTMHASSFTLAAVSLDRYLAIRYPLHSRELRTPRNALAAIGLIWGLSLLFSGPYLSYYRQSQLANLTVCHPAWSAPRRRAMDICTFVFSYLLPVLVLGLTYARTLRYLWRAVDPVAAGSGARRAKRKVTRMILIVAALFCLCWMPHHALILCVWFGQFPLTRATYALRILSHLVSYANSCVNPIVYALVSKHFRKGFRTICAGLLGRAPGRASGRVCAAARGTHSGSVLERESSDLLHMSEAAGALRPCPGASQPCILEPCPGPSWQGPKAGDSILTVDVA
HSV replic up = HSV replication enhancement. hit rate 0.005% among 220,000. AID 1956. maximum fold increase. HSV replication augmentation in cells, fold increase;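 active = peak rise of 1.5-fold or more in the series; tested in PC3 cells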;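 note: first round at 10 µM; read as green reporter fluorescence; hits show the peak of a series up to 25 µM; 1 = signal of infected wells without compound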
PKD1 inh = PKD1 (human) kinase inhibition; Q15139; hit rate 0.056% among 200,000; inhibition, %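 (about 10 µM by stock and volumes)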; PKD1 kinase fluorescence polarization assay; AID 797;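 active = inhibition of 50% or more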;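 note: controls were vehicle for no effect and a reference inhibitor for full effect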
RGS16-Gao = modulates binding between human RGS16 and Galphao | bead-based flow cytometry RGS16-Galphao binding, fluorescence; actives lie on both sides | O15492+P09471 | hit rate 0.38% among 220,000 | binding response (% of control), % at 10 µM;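 active = below 25% or above 175%, edge rows of some plates excepted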;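 note: Galphao activated by GDP with aluminum fluoride before binding; 100% = wells without compound and 0% = beads without RGS; some results beyond the cut were filed as inactive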
Target sequence (O15492 whole entry, looked up): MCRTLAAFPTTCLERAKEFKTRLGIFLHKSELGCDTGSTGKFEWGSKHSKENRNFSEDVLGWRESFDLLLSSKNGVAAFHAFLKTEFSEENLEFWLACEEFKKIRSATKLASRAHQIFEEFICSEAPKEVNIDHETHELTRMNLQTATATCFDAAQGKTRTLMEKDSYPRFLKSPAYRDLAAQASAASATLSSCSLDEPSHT
Target sequence (P09471 whole entry, looked up): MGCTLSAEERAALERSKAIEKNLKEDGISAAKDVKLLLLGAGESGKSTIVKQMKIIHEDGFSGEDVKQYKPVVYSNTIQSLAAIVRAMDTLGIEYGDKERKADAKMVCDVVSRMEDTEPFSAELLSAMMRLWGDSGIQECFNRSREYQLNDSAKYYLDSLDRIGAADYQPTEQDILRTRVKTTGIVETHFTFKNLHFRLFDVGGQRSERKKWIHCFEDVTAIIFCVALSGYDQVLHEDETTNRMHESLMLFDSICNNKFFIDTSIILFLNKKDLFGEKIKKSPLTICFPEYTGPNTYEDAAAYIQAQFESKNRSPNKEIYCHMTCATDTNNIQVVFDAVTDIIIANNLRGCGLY
INS promoter inh cell count = further read-out of INS promoter inh, marked with its call; normalized cell count, %; measured here: cell count, toxicity; reference of the scale not given here;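 cells exposed to compound for 48 h; stained nuclei by imaging scaled within each plate; lower means fewer cells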
HSV replic up primary fold = also measured in HSV replic up; calls as there; fold increase; compound at 10 µM; measured here: primary screen fold increase 10 uM; tested in PC3 cells;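 GFP signal in the first replicate; 1 = infected wells without compound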
* = called active by the depositor; i = inactive; · = no result given; & = joins results of further samples; [ ] = remark or other dose.

The opening 7 compounds, ahead of the listing:
SMILES | INS promoter inh | INS promoter inh cell count | GALR2 agonist | HSV replic up | HSV replic up primary fold | PKD1 inh | RGS16-Gao
CCN(CC)c1ccc(NC(=O)Cn2c(C(C)NC(=O)c3ccc(C)cc3)nc3ccccc32)cc1 (centres undefined) | · | · | · | i | 0.97 | 2 | 192*[activator]
CCCn1nc2cc(C(=O)NCCc3cccs3)ccc2c1OCC | -9 | 136 | -0.8 | i | 0.8 | -6 | 98
O=C1CCCc2sc3c(c2N1)CCCCC3 | · | · | -0.8 | i | 1.1 | 4 | 98
Cc1ccc2nc(SCC(=O)NNC(=O)c3ccccc3)[nH]c2c1 | 0 | 132 | -1.5 | i | 1.1 | 10 | 103
Cc1cc2nnc(SCC(=O)OC(C)C)n2c2ccccc12 | -89 | 55 | -0.8 | i | 1 | 5 | 104
COC(=O)C1=NNC(C(=O)c2ccco2)C1c1ccccc1 (centres undefined) | 55 | 98 | · | i | 0.95 | 2 | 100
Cc1ccc(S(=O)(=O)NC2c3cccc4cccc(c34)C2Sc2nncn2C)cc1 (centres undefined) | -16 | 72 | 0.1 | i | 1 | 1 | 100

The list itself, from the start:
SMILES | INS promoter inh | INS promoter inh cell count | GALR2 agonist | HSV replic up | HSV replic up primary fold | PKD1 inh | RGS16-Gao
CCN(CC)c1ccc(NC(=O)Cn2c(C(C)NC(=O)c3ccc(C)cc3)nc3ccccc32)cc1 (centres undefined) | · | · | · | i | 0.97 | 2 | 192*[activator]
CCCn1nc2cc(C(=O)NCCc3cccs3)ccc2c1OCC | -9 | 136 | -0.8 | i | 0.8 | -6 | 98
O=C1CCCc2sc3c(c2N1)CCCCC3 | · | · | -0.8 | i | 1.1 | 4 | 98
Cc1ccc2nc(SCC(=O)NNC(=O)c3ccccc3)[nH]c2c1 | 0 | 132 | -1.5 | i | 1.1 | 10 | 103
Cc1cc2nnc(SCC(=O)OC(C)C)n2c2ccccc12 | -89 | 55 | -0.8 | i | 1 | 5 | 104
COC(=O)C1=NNC(C(=O)c2ccco2)C1c1ccccc1 (centres undefined) | 55 | 98 | · | i | 0.95 | 2 | 100
Cc1ccc(S(=O)(=O)NC2c3cccc4cccc(c34)C2Sc2nncn2C)cc1 (centres undefined) | -16 | 72 | 0.1 | i | 1 | 1 | 100
Cc1cccc(CSc2nc3c(c(=O)[nH]2)CCC3)c1 | · | · | · | i | 0.89 | -2 | 102
CCNc1c(NC(C)=O)c(=O)oc2ccccc12 | -200 | 116 | 0.0 | i | 1 | -12 | 100
Cn1c(=Nc2ccc(N3CCOCC3)cc2)ccc2ccccc21 | · | · | -1.2 | i | 1 | -6 | 103
Cc1nc(CS(=O)(=O)c2ccccc2)cc(Sc2ccccc2Cl)n1 | -25 | 88 | -1.0 | i | 1 | -4 | 102
O=C(NCC1OCCc2ccccc21)c1ccco1 (centres undefined) | -6 | 33 | -1.3 | i | 0.95 | -5 | 99
O=C(O)CC(NC(=O)COc1ccccc1)c1cccc([N+](=O)[O-])c1 (centres undefined) | 15 | 121 | · | i | 1.1 | 2 | 102
NS(=O)(=O)c1ccc(CCNC(=O)c2cccc(OC(F)F)c2)cc1 | -69 | 98 | · | i | 1.1 | 3 | 97
O=C(Nc1cccc(O)c1)C(=O)Nc1ccccn1 | · | · | -0.3 | i | 0.93 | 3 | 95
Cn1c(=O)c2c(ncn2CC(=O)N2CCc3ccccc3C2)n(C)c1=O | -21 | 148 | 0.2 | i | 0.91 | -6 | 105
COC(=O)c1ccc(NC(=S)NC2CCCCC2)cc1 | · | · | -3.8 | i | 1.1 | -8 | 90
COC(=O)CSc1nnc(-c2ccccn2)n1N | · | · | · | i | 0.91 | · | 105
Cc1cc(Cl)nc(-c2ccccc2O)n1 | · | · | · | i | 1.1 | · | 104
FC(F)(F)c1cc(CCN2C(=S)NC[C@@H]2CC2CCCCC2)cc(C(F)(F)F)c1 | · | · | · | i | 1.1 | · | 95
CC(=O)Nc1ccc(NC(=O)CCCSc2nc3ccccc3[nH]2)cc1 | · | · | · | i | 1.1 | · | 82
COc1cc(S(=O)(=O)N2CCOCC2)ccc1NC(=O)CN1c2cccc3cccc(c23)S1(=O)=O | 0 | 130 | -0.9 | i | 0.92 | -2 | 94
CN(C)c1ccc(/C=N/NC(=O)c2nonc2N)cc1[N+](=O)[O-] | · | · | · | i | 0.85 | 1 | 109
CCCCn1c(C)cc(C)c(S(=O)(=O)c2ccccc2C)c1=O | 0 | 74 | -0.6 | i | 1 | 2 | 107
COc1ccc(NC2c3ccccc3C(=O)N2c2ccccn2)cc1 (centres undefined) | · | · | · | i | 1 | · | 98
COc1ccc(N2CCN(CC(O)COc3ccccc3[N+](=O)[O-])CC2)cc1 (centres undefined) | -64 | 78 | 0.6 | i | 0.93 | -6 | 107
O=C(NCCCNCCCNC(=O)c1ccccn1)c1ccccn1 | -64 | 116 | -1.0 | i | 1.1 | -3 | 116
c1ccc(C[n+]2cccc3c4ccccc4ccc32)cc1 | -77 | 127 | -1.8 | i | 0.96 | -3 | 107
COc1cc2c(cc1OC)CN(CC(=O)Nc1cccc(C)c1)CC2 | 9 | 65 | -1.0 | i | 0.95 | -5 | 104
COc1ccc(OC)c(Nc2nc(-c3ccc(O)c(O)c3)cs2)c1 | · | · | 1.0 | i | 0.51 | 5 | 108
COCCCNC(=O)COc1cc(C)c(Cl)c(C)c1 | 3 | 84 | -2.4 | i | 0.92 | 0 | 99
CC(=O)Nc1ccc(S(=O)(=O)N(Cc2ccccc2)C(C)C)cc1 | -3 | 116 | -1.1 | i | 1 | -1 | 95
COc1cccc(CNC2CCCc3ccccc32)c1OC (centres undefined) | · | · | · | i | 0.96 | -6 | 100
COc1ccccc1CNC(=O)CN(c1ccc(C)cc1)S(=O)(=O)c1c(C)nn(C)c1C | · | · | 0.0 | i | 0.87 | -6 | 109
CCOc1cc(C)c(C(C)C)cc1S(=O)(=O)N1CCN(C)CC1 | -89 | 86 | -3.4 | i | 1.1 | -3 | 102
Cc1ccc(S(=O)(=O)NNC(=O)c2snnc2C)cc1 | 17 | 57 | 0.2 | i | 1 | -6 | 113
CCn1c(=O)n(CC(=O)Nc2cccc(OC)c2)c(=O)c2ccccc21 | -19 | 112 | 0.1 | i | 0.99 | -16 | 103
Cc1cc2cc3c(cc2nc1SCC(=O)OC(C)C)OCO3 | · | · | -0.7 | · | · | 2 | 102
CCc1nnc(NC(=O)CSc2nc3c(c(=O)n2C)SC(C)C3)s1 (centres undefined) | 40 | 74 | -2.4 | i | 0.99 | -6 | 107
COc1ccc(CC2S/C(=N/N=C/c3ccc(O)cc3)NC2=O)cc1 (centres undefined) | 6 | 105 | · | i | 0.94 | -6 | 108
COc1ccc(C(C)=O)cc1CSc1nc2cc(Cl)ccc2o1 | 74* | 95* | -1.0 | i | 1 | 0 | 101
O=C(CCN1C(=O)C2CC=C(Cl)CC2C1=O)NC1CCCCC1 (centres undefined) | · | · | -2.0 | i | 1.4 | 1 | 102
O=C1NC(CCc2ccccc2)C(=O)N1Cc1ccc(Br)cc1 (centres undefined) | · | · | · | i | 0.7 | 5 | 102
CC(C)(C)C(=O)NC(=S)Nc1ccccc1C(N)=O | -84 | 103 | 0.2 | i | 1 | 5 | 103
Nc1ccc(-c2cc(-c3ccc(N)cc3)nc(-c3ccccc3)n2)cc1 | 6 | 88 | -0.6 | i | 0.99 | 3 | 109
CC1CN(CCc2ccccc2)c2nc3c(c(=O)[nH]c(=O)n3C)n2C1 (centres undefined) | -38 | 112 | 0.5 | i | 0.92 | -4 | 104
Cc1ccc(C)c(CSc2nnc(-c3cccnc3)n2N)c1 | 29 | 115 | -2.1 | i | 1.1 | -8 | 104
Nc1nonc1C(=O)N/N=C/c1ccc(-c2cccc([N+](=O)[O-])c2)o1 | 27 | 100 | -1.5 | i | 1.1 | -11 | 100
O=C(NC1CCCC1)c1ccc(S(=O)(=O)N2CCOCC2)cc1 | -4 | 91 | -1.1 | i | 1.1 | -3 | 77
Cc1oc(-c2cccc(Cl)c2)nc1CN1CCC(C(=O)NCc2ccco2)CC1 | · | · | -2.0 | i | 1 | -5 | 104
CCOC(=O)CC(=O)CSc1nc2sc(C)cc2c(=O)n1Cc1ccco1 | 40 | 59 | -4.4 | i | 1.1 | -8 | 100
O=C(CC(=O)c1cccc([N+](=O)[O-])c1)Nc1ccccc1Cl | -29 | 100 | · | i | 0.87 | -7 | 95
O=C(/C=C/c1ccccc1)NC1CCCc2ccccc21 (centres undefined) | -29 | 59 | · | i | 0.96 | 0 | 148
Cc1nn(C)c(C(=O)N2CCN(C(=O)c3ccco3)CC2)c1Br | -27 | 121 | -0.7 | i | 0.99 | -3 | 193
O=C(NNC(=O)C1CCCN(S(=O)(=O)c2ccc3ccccc3c2)C1)C1CC1 (centres undefined) | 48 | 182 | · | i | 0.96 | -3 | 103
Cc1cc(=O)oc2c(C(=O)c3ccccc3)c(OCC(N)=O)ccc12 | · | · | · | i | 1.1 | · | 98
COc1ccccc1-c1nnc(SCC(=O)NC2CCS(=O)(=O)C2)n1N (centres undefined) | -61 | 156 | · | i | 1.1 | -4 | 102
COc1ccccc1OCCN1CSC(=S)N(C)C1 | 19 | 100 | -0.5 | i | 0.92 | -2 | 106
CCOC(=O)c1cnc2ccc(OCC)cc2c1N1CCN(C)CC1 | · | · | -2.0 | i | 0.88 | -6 | 105
O=C(O)CC1NC(=S)N(c2ccccc2)C1=O (centres undefined) | -8 | 143 | -0.8 | i | 1.1 | 2 | 102
New compounds follow
SMILES | INS promoter inh | INS promoter inh cell count | GALR2 agonist | HSV replic up | HSV replic up primary fold | PKD1 inh | RGS16-Gao
CC1CCN(C(=S)c2cccc(O)c2)CC1 | 29 | 125 | · | i | 1 | -5 | 96
Cc1ccc(NC(=O)COc2ccc(C(=O)NCCc3ccccc3)cc2)cc1 | 35 | 68 | -0.1 | i | 0.89 | -2 | ·
CCOC(=O)CNCCC(=O)c1ccc(Br)cc1 | · | · | -0.9 | i | 0.92 | 1 | 110
CCn1c(SC2CCOC2=O)nnc1-c1ccc(Cl)cc1 (centres undefined) | · | · | · | i | 0.99 | 7 | 102
O=C(NCCc1ccccc1)c1cc(-c2ccc3c(c2)OCO3)on1 | · | · | -2.1 | i | 0.91 | 0 | 95
COc1ccc(-c2ccc3c(n2)sc2c(=O)[nH]c(=O)[nH]c23)cc1OC | -136 | 96 | · | i | 0.92 | 4 | 103
CCn1c(SCC(=O)NCCOC)nc2sc(C)c(C)c2c1=O | · | · | -2.0 | · | · | -4 | 105
COC(=O)C1C2CCC(C2)C1C(=O)OCC(=O)c1ccc(C)cc1 (centres undefined) | 22 | 129 | -2.1 | i | 0.82 | -5 | 115
CCCC[n+]1ccn(-c2nc3ccccc3nc2[N-]S(=O)(=O)c2cccs2)c1 | · | · | · | i | 0.88 | · | 95
N#Cc1ccc(C23CC4(C2)[C@H](CN(Cc2ccc(-c5ccccc5)cc2)[C@@H]4c2ccccc2)C3c2ccc(C(F)(F)F)cc2)cc1 (some centres undefined) | · | · | · | i | 0.96 | · | 100
Clc1ccc(-n2c(SCc3nc4ccccc4[nH]3)nnc2-c2ccncc2)cc1 | 36 | 70 | -0.8 | i | 1.1 | -14 | 104
O=C(Cc1cc(=O)[nH][nH]1)N/N=C/c1cccc(Cl)c1Cl | · | · | -0.6 | i | 0.93&0.95 | -5&0 | 96&99
NS(=O)(=O)c1ccc(NC(=S)NCc2ccccc2Cl)cc1 | -26 | 132 | -1.9 | i | 0.99 | 18 | 99
COC(=O)c1cc(-c2cccc(OC)c2)n[nH]1 | 43 | 122 | 0.3 | i | 0.93 | -3 | 106
COC(=O)c1sccc1NC(=S)N1CCN(c2ccccc2F)CC1 | · | · | -1.4 | · | · | 1 | 95
O=C(NC(CC(=O)N1CCN(c2ccccc2)CC1)c1ccccc1)c1ccccc1Cl (centres undefined) | -59 | 170 | 1.1 | i | 1 | -10 | 102
O=C(c1ccco1)N1CCN=C1SCc1cccc(F)c1 | · | · | -0.7 | i | 1 | -8 | 102
Cn1c(=O)c(=O)n(C)c2cc(S(=O)(=O)N3CCCC3C(=O)NCc3cccnc3)ccc21 (centres undefined) | · | · | · | i | 0.97 | · | 99
CCOC(=O)CNS(=O)(=O)c1ccc(C)cc1 | -61 | 98 | -2.0 | i | 1.1 | 6 | 98
Cn1c(SCC(=O)NNC(=S)Nc2ccccc2)nnc1-c1ccccc1 | · | · | · | i | 0.83 | · | 98
Cc1cccc2cc3c(NC(=O)c4ccccn4)nn(C)c3nc12 | · | · | 8.4 | i | 0.78 | -9 | 98
